Source: PubChem BioAssay (National Center for Advancing Translational Sciences (NCATS))
CtBP-E1A inh: inhibitors of CtBP/E1A interaction; AlphaScreen GST-E1A/His-CtBP binding, 1536-well; hits give low values; control for the full effect not named in the record; activity change, % (no concentration beside the values); actives 0.49% (n = 340,000); in the data active means activity change below about -65%; inconclusive means about -30% to -65%; inactive means above about -30%; note: % is set by controls: 0 for no effect and ±100 for the full control effect; compound concentration not given in the record
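Protein mix (5X: 125 nM each GST-E1A, His-CtBP) was incubated with pinned compound 2 h at 37 deg C in dark, in 50 mM Tris pH 8.0 buffer with 300 mM NaCl. Glutathione donor and nickel acceptor beads followed; AlphaScreen signal read after 1 h.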
TRPML1 ag: agonists of human TRPML1 channel; AID 624414; actives 0.12% (n = 410,000); TRPML1-expressing cells, Ca2+ dye fluorescence, FDSS; host cell line not named in the record; reference of the full effect not given here; activation, % (no concentration beside the values); Q9GZU1; in the data active = activation above about 50%; inconclusive = about 30% to 50%; inactive = below about 30%; note: 0% is about no effect; the text of the record puts the active cut at 80%
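Agonist activity was taken from a 110 s kinetic Ca2+ dye read on the FDSS after pinning compounds onto TRPML1-DL cells. The cells were seeded at 1,500/well with Tet inducer, incubated about 16 h, then dye-loaded at room temperature.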
Six1-Eya2 blk: Six1/Eya2 interaction inhibition | activity change, % (concentration not given with the values) | actives 0.56% (n = 360,000) | AlphaScreen GST-Six1/His-Eya2 binding, biochemical; hits give low values; control for the full effect not named in the record; in the data active = activity change below about -65%; inconclusive = about -30% to -65%; inactive = above about -30%; note: % is set by controls: 0 for no effect and ±100 for the full control effect
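Compounds are tested against tagged Six1 and Eya2 proteins bridged by glutathione donor and nickel acceptor beads; after a one-hour incubation at 37 °C without light, AlphaScreen emission is recorded.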
D2 PAM: positive allosteric modulators of human D2 dopamine receptor | P14416 | potentiation, % (no concentration beside the values) | DiscoveRx D2 beta-arrestin cells, luminescence, 90 min; 100% = 57 uM dopamine signal | actives 0.23% (n = 360,000); active = potentiation of 50% or more; inconclusive = 30% to 50%; inactive = 30% or less;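 note: compound concentration not given in the record; tested on top of an EC20 dose of dopamine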
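D2 cells co-treated with compound plus 50 nM dopamine (EC20) for 90 min at 37 deg C to detect potentiation. Beta-arrestin recruitment was read as enzyme-fragment luminescence after 1 h at ambient temperature. Full response was set by 57 uM dopamine.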
TRPV1 PAM: enhances activation of the human vanilloid receptor TRPV1; potentiation, % at 8.33 µM; TRPV1-expressing cells, Fluo-8 calcium influx, capsaicin EC20 potentiation; host cell line not named in the record; control for the full effect not named in the record; AID 540277; Q8NER1; actives 0.02% (n = 320,000); active means potentiation above 80%; inconclusive means 30% to 80%; inactive means below 30%; note: 0% is about no effect
Target sequence (Q8NER1 whole entry, looked up): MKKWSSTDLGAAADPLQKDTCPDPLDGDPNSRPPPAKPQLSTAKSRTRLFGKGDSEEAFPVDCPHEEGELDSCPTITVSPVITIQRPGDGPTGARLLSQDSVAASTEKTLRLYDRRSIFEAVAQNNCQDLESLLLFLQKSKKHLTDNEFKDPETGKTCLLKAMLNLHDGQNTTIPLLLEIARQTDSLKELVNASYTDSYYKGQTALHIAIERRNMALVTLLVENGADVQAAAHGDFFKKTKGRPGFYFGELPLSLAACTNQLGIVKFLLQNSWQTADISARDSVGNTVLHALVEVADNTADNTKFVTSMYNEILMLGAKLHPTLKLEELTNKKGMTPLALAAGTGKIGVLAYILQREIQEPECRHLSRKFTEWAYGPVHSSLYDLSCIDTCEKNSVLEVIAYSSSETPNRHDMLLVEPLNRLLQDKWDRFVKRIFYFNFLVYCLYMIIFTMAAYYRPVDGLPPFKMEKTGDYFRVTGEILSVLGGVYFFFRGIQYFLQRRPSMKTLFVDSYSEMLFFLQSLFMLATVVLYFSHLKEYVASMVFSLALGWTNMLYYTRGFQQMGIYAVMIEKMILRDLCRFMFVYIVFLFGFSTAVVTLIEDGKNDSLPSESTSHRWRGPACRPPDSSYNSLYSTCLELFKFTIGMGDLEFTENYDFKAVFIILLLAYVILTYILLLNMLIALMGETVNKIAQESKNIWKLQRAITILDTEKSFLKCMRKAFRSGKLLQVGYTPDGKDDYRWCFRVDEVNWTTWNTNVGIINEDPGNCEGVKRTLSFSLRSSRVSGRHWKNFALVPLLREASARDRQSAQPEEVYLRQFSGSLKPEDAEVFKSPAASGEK
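Fluo-8 calcium influx in TRPV1-expressing cells, kinetic read (ex 480/em 520 nm). Compound added and read 3 min for agonist activity, followed by capsaicin at EC20 final and 2 min further read for enhancement.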
TRPML1 blocker: blocks the human TRPML1 channel; Q9GZU1; TRPML1-inducible cells, Ca2+ dye fluorescence, FDSS; hits give low values; inhibition of EC80 agonist-evoked calcium signal; activity change, negative = inhibition, % (concentration not given with the values); actives 0.02% (n = 390,000); in the data active means activity change below about -50%; inconclusive means about -30% to -50%; inactive means above about -30%;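 note: stimulus is agonist 54-4 at its EC80 concentration; % is set by controls: 0 for no effect and ±100 for the full control effect; compound concentration not given in the record; the text of the record puts the active cut at -80%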
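Tet-induced TRPML1-DL cells loaded with Ca8 no-wash calcium dye were read kinetically on FDSS. Compound addition was followed by EC80 agonist 54-4 (4 uM final); inhibition was read over 110 s.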
* marks the source's active call; other numbers are inactive results; ? = inconclusive; nt = not tested or not shown. Compounds as they come, and some 0.95% of all compounds hit somewhere here.

SMILES	CtBP-E1A inh	TRPML1 ag	Six1-Eya2 blk	D2 PAM	TRPV1 PAM	TRPML1 blocker
c1ccc(-c2noc(-c3ccc4ccccc4c3)n2)nc1	-8	-1.3	2	8	-11	7
CCC(=O)N1c2ccccc2NC2=C(C(=O)CC(C)(C)C2)C1c1cccnc1 (stereo not given)	-4	0.3	-1	-9	?	-9
Cc1ccc(S(=O)(=O)Cc2ccc(C(=O)N3CCCCC3C)cc2)cc1 (stereo not given)	-1	-0.3	-7	-12	2	3
CC(C)(C)c1cc(C(=O)CCN2CCOCC2)cc(C(C)(C)C)c1O	-10	2.2	-7	-7	-12	5
Cc1ccccc1Nc1nc(N)nc(CSc2nnc3ccccn23)n1	2	1.0	1	3	3	26
COc1ccccc1CNC(=O)c1ccc(S(=O)(=O)N(C)c2ccccc2)cc1	3	-0.1	7	-3	26	29
COc1ccc2[nH]c(C)c(CCNC(=S)Nc3ccc(C)cc3)c2c1	nt	1.3	-23	-11	-9	7
Cc1ccccc1-c1nc(CN2CCC(C(=O)N3CCC(C(N)=O)CC3)CC2)c(C)o1	3	0.5	6	-14	-3	-1
Cc1c([N+](=O)[O-])cc(C(=O)Oc2ccc(Br)cc2C(=S)N2CCCCC2)cc1[N+](=O)[O-]	-18	0.8	-22	-23	5	30
O=C(O)C1=C[C@@H](c2ccc(C(F)(F)F)cc2)C[C@@H](OCCCCO)O1	0	-0.6	0	-23	nt	-8
CC(C)Oc1ccc(CN2CCC2(C)C(=O)Nc2cnc3ccccc3c2)cc1 (stereo not given)	-23	-0.1	-5	-4	nt	nt
Cc1nn(Cc2ccc(Cl)c(Cl)c2)c(C)c1NC(=O)c1cn(-c2ccccc2)nc1-c1ccccc1	-8	2.9	-4	-1	4	8
Cc1ccc(Cn2ccc(NC(=O)c3cc4nc(-c5ccco5)cc(C(F)(F)F)n4n3)n2)cc1	-1	0.3	-2	-3	4	-5
O=C(Nc1ccccc1N1CCOCC1)C1=NN(c2c(F)c(F)cc(F)c2F)C(=O)CC1	7	-0.9	3	-2	-15	-23
COc1ccc(NC(=O)CCCn2c(=O)[nH]c3ccccc3c2=O)cc1	5	-0.5	1	2	-8	-4
COc1ccc(S(=O)(=O)N2CCSCC2)cc1	-1	0.7	2	-4	?	-1
Cc1[nH]nc2c1C(c1ccc(N(C)C)cc1)C1=C(CC(C)(C)CC1=O)N2 (stereo not given)	-1	-0.1	-2	-7	-1	20
c1ccc2c(c1)OCC(CNc1ncnc3sccc13)O2 (stereo not given)	-6	-0.5	1	-6	-7	-7
Cc1c(C(=O)O)nnn1-c1nonc1N	4	-1.5	2	1	-2	8
COc1ccc(-n2c(-c3ccc(OC)c(OC)c3)n[nH]c2=S)cc1	0	0.4	-1	1	5	13
CN(CC(=O)Nc1ccccc1Br)C(=O)c1cc(Cl)nc2ccccc12	-1	-0.7	6	-2	-7	5
Cc1ccc(CS(=O)(=O)c2cn(CC(=O)Nc3ccon3)c3ccccc23)cc1	-3	-0.5	-1	3	4	-15
Cc1ccc(CNC(=O)C2CC2c2ccccc2)cc1 (stereo not given)	10	0.8	6	-4	-11	4
CC(C)c1ccccc1OCC(=O)NCC(c1cccs1)N1CCOCC1 (stereo not given)	-2	0.8	5	-16	-13	14
Nc1cc(=O)[nH]c(SCCSc2ccc(F)cc2)n1	-5	1.8	-7	-1	-10	3
COc1ccc(/C=C2\CCn3c2nc2cc(C(=O)O)ccc2c3=O)cc1O	?	-0.3	?	6	-2	-6
Cc1c(C(=O)N(Cc2ccccc2)Cc2cccnc2)cnn1-c1ccc(F)cc1	-1	0.0	0	-4	-4	9
Nc1ccc(Cl)cc1C(=O)OCC(=O)NC1CCS(=O)(=O)C1 (stereo not given)	-2	0.1	0	-3	20	-4
C=CC[C@H](CC(=O)OC(C)(C)C)C(=O)OC[C@H]1CCCN1C(=O)[C@H](CC=C)CC(=O)N(CCO)Cc1ccccc1	0	0.1	0	0	nt	-14
CC(C)c1ccc(NC(=O)C2Cc3c(-c4ccccc4Oc4ccccc4)ccnc3O2)cc1 (stereo not given)	12	0.6	12	-1	nt	-5
CC(C)(C)c1ccc(NC(=O)COC(=O)c2ccc(CN3CCCC3=O)cc2)cc1	-8	2.6	0	-3	9	-11
Cc1ccc(CNS(=O)(=O)c2c(N)n(C)c(=O)n(C)c2=O)cc1	-13	0.7	2	-12	19	-23
O=C(O)c1ccccc1C(=O)NNc1cccc(Cl)n1	-2	0.0	6	-10	1	22
CN(/C=C1/C(=O)CNC1=O)CCO	nt	0.2	1	-1	-8	7
Nc1cnc(Br)cc1Br	1	0.9	4	-6	-7	6
CCCCOc1ccc(C(=O)N/C(=C\c2cccc([N+](=O)[O-])c2)C(=O)OC(C)C)cc1	-3	-0.2	-17	-8	-5	4

Some of the entries so far, bar-delimited:
SMILES | CtBP-E1A inh | TRPML1 ag | Six1-Eya2 blk | D2 PAM | TRPV1 PAM | TRPML1 blocker
Cc1ccc(CNS(=O)(=O)c2c(N)n(C)c(=O)n(C)c2=O)cc1 | -13 | 0.7 | 2 | -12 | 19 | -23
O=C(O)c1ccccc1C(=O)NNc1cccc(Cl)n1 | -2 | 0.0 | 6 | -10 | 1 | 22
CN(/C=C1/C(=O)CNC1=O)CCO | nt | 0.2 | 1 | -1 | -8 | 7
Nc1cnc(Br)cc1Br | 1 | 0.9 | 4 | -6 | -7 | 6

Continued:
SMILES	CtBP-E1A inh	TRPML1 ag	Six1-Eya2 blk	D2 PAM	TRPV1 PAM	TRPML1 blocker
C#CCOc1ccc(/C=C2/C(=O)N(c3cccc(C(=O)O)c3)N=C2C)cc1OC	1	-0.3	5	-4	-15	27
Cc1cc(C(=O)COC(=O)c2ccco2)c(C)n1Cc1ccco1	nt	0.0	-21	-8	-11	13
COc1cccc(S(=O)(=O)N(C)C[C@@H]2OCc3cnnn3CCCC(=O)N([C@@H](C)CO)C[C@H]2C)c1	-4	-0.3	5	7	nt	-14
CCOC(=O)N1CCN(S(=O)(=O)c2ccc(C(=O)NNc3nc4cc(C)cc(C)c4s3)cc2)CC1	-10	-0.1	-2	0	11	14
COc1ccc(OC)c(N(CC(=O)N2CCOCC2)S(C)(=O)=O)c1	-13	0.4	9	-7	28	10
CC(C)(C)CNC(=O)c1cccc2c1C(=O)c1ccc(N3CCCC3)cc1S2(=O)=O	nt	19	3	5	nt	-7
COc1cc(CO)c(Br)cc1OCC(N)=O	-3	0.0	0	2	6	31
O=C(COC(=O)/C=C/c1ccccc1)NC1CCCCCC1	2	0.1	14	5	1	12
COC(=O)c1c(C#N)c(N)nc2c1CCCC2	6	-0.1	9	-18	?	1
COCCCN1C(=O)C(O)=C(C(=O)c2ccc(C)o2)C1c1cccc(Br)c1 (stereo not given)	7	2.4	-6	10	-3	27
C=CCN1CC(C)/C(=N\O)CC1C (stereo not given)	13	1.2	0	-5	5	25
COCCCN1C(=O)/C(=C/c2ccc(CNS(=O)(=O)c3ccccc3)o2)C(C(=O)OC)=C1C	-17	0.1	17	-1	15	34

Full records, quoted from the list:
c1ccc2c(c1)OCC(CNc1ncnc3sccc13)O2 (stereo not given) in the list: CtBP-E1A inh: -6; TRPML1 ag: -0.5; Six1-Eya2 blk: 1; D2 PAM: -6; TRPV1 PAM: -7; TRPML1 blocker: -7
Cc1[nH]nc2c1C(c1ccc(N(C)C)cc1)C1=C(CC(C)(C)CC1=O)N2 (stereo not given) in the list: CtBP-E1A inh: -1; TRPML1 ag: -0.1; Six1-Eya2 blk: -2; D2 PAM: -7; TRPV1 PAM: -1; TRPML1 blocker: 20

The results go on.
SMILES	CtBP-E1A inh	TRPML1 ag	Six1-Eya2 blk	D2 PAM	TRPV1 PAM	TRPML1 blocker
COc1ccc(N(CC(=O)NCc2cccs2)S(=O)(=O)c2cccc(C)c2)cc1	-1	0.0	0	3	-1	22
CC(=O)c1ccccc1NC(=O)CCNC(=O)c1ccco1	4	0.0	2	1	21	9
COc1cccc(-c2nc(CS(=O)(=O)CC(=O)NCCc3cc(OC)ccc3OC)c(C)o2)c1	-17	2.0	-16	-7	-2	-8
CCOCCCNC(=O)COc1ccc(OC)cc1	4	-0.5	-6	-4	-8	11
Nc1ccc2nc(-c3ccccc3)sc2c1	20	-0.3	14	-4	-9	9
COc1cc2[nH]c(C(=O)N(C)Cc3ccccc3)cc2c(OC)c1OC	nt	1.4	-7	-14	5	-18
COc1ccc(-c2cc(-c3ccco3)[nH]c(=O)c2C#N)cc1	10	-0.6	5	-3	-7	10
CN1C(=O)SC(Nc2ccccc2)C1=O (stereo not given)	-3	-0.7	3	-27	12	-16
O=C(Nc1cccc2cccnc12)c1ccc(Cl)cc1	23	1.7	13	1	-7	-6
O=C(CN(Cc1ccc2c(c1)OCO2)C(=O)CNS(=O)(=O)c1ccccc1)NCc1ccco1	-1	6.4	-9	-10	6	9
COC(=O)C1=C(N)Oc2cc(C)n(C)c(=O)c2C1c1ccc(Cl)cc1 (stereo not given)	2	-0.6	0	-8	-12	-21
CCC(CC)C(=O)OCC(=O)Nc1cccc(S(=O)(=O)N(C)c2ccccc2)c1	-1	3.4	22	-10	1	18
COc1cc(SC)ccc1C(=O)NC1CCCc2ccccc21 (stereo not given)	27	2.3	5	-2	-10	-1
Cc1ccc(/C=C/C(=O)Nc2cc(S(=O)(=O)N3CCOCC3)ccc2N2CCOCC2)cc1	8	0.8	5	-2	4	11
CC(NC(=O)c1cc2c(s1)CCCC2)C(C)(C)C (stereo not given)	9	0.9	-2	-3	-11	9
COc1ccc(Oc2nccc(OC)c2C#N)cc1	10	1.8	7	1	20	17
Cc1cc(OCC(=O)NN2C(=O)c3ccccc3C2=O)ccc1Cl	nt	2.0	10	-2	19	-10
O=C(N/N=C/c1cccc([N+](=O)[O-])c1)c1cc2ccccc2o1	1	1.4	12	-27	-11	20
C=CCNC(=O)c1onc(CSc2ccc(Cl)cc2)c1C(=O)NCC=C	12	0.6	16	-3	17	31
CC(=O)c1cccc(NC(=O)C2(C)Cc3c(-c4cccc(C(N)=O)c4)ccnc3O2)c1 (stereo not given)	1	-0.5	-14	5	nt	nt
COc1ccc([N+](=O)[O-])cc1NC(=O)c1cccs1	?	-0.1	9	-3	-9	-8
CO/N=C/c1ccc(Sc2ccc(C)cc2)c([N+](=O)[O-])c1	-7	0.9	-6	-13	-1	20
CN1CCN(S(=O)(=O)c2ccc(NC(=O)c3ccccc3Cl)cc2)CC1	-22	0.9	6	0	-23	-12
CCCCN(Cc1cc2ccccc2[nH]c1=O)S(C)(=O)=O	17	0.4	1	11	4	-1
COc1ccc(OC)c(NC(=S)N2CCC(C(O)(c3ccccc3)c3ccccc3)CC2)c1	-10	-0.5	-12	26	1	-15
O=C(CCCn1c(=O)c2ccccc2n(CC(=O)NCc2ccco2)c1=O)NCc1ccco1	7	-0.3	1	8	-7	-5
Cc1cc(C)cc(OCC(=O)Nc2ccccc2C(=O)NCc2ccco2)c1	-14	3.2	-1	-12	12	-2
CCn1c(N2CCN(CC(=O)c3c(C)n(C)c4ccccc34)CC2)nc2c1c(=O)[nH]c(=O)n2C	5	0.4	0	-11	nt	-10
NS(=O)(=O)c1ccc(CCNCc2cc(Br)ccc2OCc2ccccc2F)cc1	-9	0.3	-8	-20	-3	-10
CNC(=S)NNC(=O)c1ccc(C(C)(C)C)cc1	nt	-0.4	-16	-19	nt	5
COc1cc(/C=N/N=C/c2c[nH]c(=O)c(C#N)c2Nc2ccccc2)ccc1O	?	0.1	-21	-16	-4	12
